Ab BasE inh = BasE siderophore biosynthesis inhibition; purified BasE, fluorescence polarization binding displacement; inhibition, % (no concentration beside the values); actives 0.1% (n = 84,000); AID 485350;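 active = both replicates above 25% with normal brightness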;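 note: 0% = negative plate control signal and 100% = positive plate control signal; stock transfer was 100 nL into about 30 µL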
KSHV LANA nucl = LANA-nucleosome interaction inhibition | FITC-LANA1-23 / chicken nucleosome fluorescence polarization; hits give low values | z-score (concentration not given with the values) | actives 0.3% (n = 51,000) | AID 720717;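 active = both repeat wells score below -2 in polarization z-score versus plate sample wells, excluding overly bright wells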;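 note: 100 nL library stock added to about 30 µL; numbers are from one replicate; some results filed as inactive read as strong as hits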
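Test system: purified chicken nucleosomes with FITC-labelled LANA N-terminal peptide (1-23); Input: 240 nM purified chicken nucleosomes (480 nM peptide binding sites), final; Medium: TEN-BT buffer, pH 7.5; Timing: 10–45 min, room temperature; Technique: fluorescence polarization, 480 nm excitation, 535 nm parallel and perpendicular emission; Replication: duplicates.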
Starred values were filed as active, the others as inactive; · = no result given.

Below each SMILES: Ab BasE inh | KSHV LANA nucl
- CCC(=O)Nc1c(C(N)=O)oc2ccccc12
 : 1.1 | -0.905
- CCCCNC(=O)c1cc2c(C)cc(C)cc2[nH]1
 : 1.3 | -0.023
- COc1ccc(C2N(C(=O)c3ccccc3)CCN2C(=O)c2ccc(C)cc2)cc1 (stereo not given)
 : -3.7 | ·
- CCC(=O)n1nc(-c2ccccc2)nc1NCc1ccccc1
 : -0.9 | -1.76
- CC1(C)C(=O)NC(=O)N1C(=O)c1ccccc1
 : 0.5 | -0.339
- CN(C)c1ccc(N2C(=O)CC(NNc3ccccc3)C2=O)cc1 (stereo not given)
 : 0.0 | -0.316
- Cc1cc(C)n(-c2ccc(C(=O)OCC(=O)Nc3ccccc3)cc2)n1
 : 1.2 | ·
- COC(=O)C(C)Nc1n[nH]c(=S)[nH]c1=O (stereo not given)
 : 3.2 | -0.14
- CCOC(=O)c1csc(-c2cccs2)n1
 : -0.3 | ·
- O=C(CC1Oc2ccccc2NC1=O)NCc1cccnc1 (stereo not given)
 : -2.5 | 2.32
- O=S(=O)(c1ccc2c3c(cccc13)CC2)N1CCSC1
 : -0.5 | ·
- Clc1ccc2c(c1)CN(C1CCCCC1)CO2
 : -0.5 | -0.925
- O=C(O)CC(NC(=O)Cc1ccccc1)c1ccccc1 (stereo not given)
 : 0.3 | -0.233
- O=C(COC(=O)C1(c2ccccc2)CC1)N1CCN(c2ccc(F)cc2)CC1
 : 0.3 | ·
- Cc1ccc(C(=O)CSc2nnc(-c3cccc(C)c3)o2)cc1
 : 1.5 | -0.589
- FC(F)(F)Oc1ccc(-n2cccc2)cc1
 : · | 0.486
- Cc1nc(-c2nc(-c3c(C(=O)N/N=C/c4ccc(Cl)cc4)noc3C)cs2)cs1
 : -0.6 | -0.381
- Cc1ccc(S(=O)(=O)N2CCOCC2)cc1C(=O)OCC(=O)N(C)c1ccccc1
 : -0.8 | ·
- CN(Cc1nc(-c2ccccc2)no1)C(=O)CCN1C(=O)c2ccccc2C1=O
 : -0.1 | 1.29
- Cc1ccc(O)c(C(=O)c2cnc3nc4ccccc4n3c2)c1
 : 0.2 | ·
- CS(=O)(=O)Cc1cccc(C(=O)NCc2ccco2)c1
 : -1.5 | ·
- CC(C)CSc1nc2sccc2c(=O)n1-c1ccccc1
 : -1.3 | ·
- Cc1ccc(Nc2nc(C)cs2)cc1
 : -3.1 | -0.393
- CC(=O)NCCC(=O)Nc1cccc(C#N)c1
 : 3.5 | ·
- S=C(Nc1ccc(Cl)c(Cl)c1)NC1CCCC1
 : 1.9 | ·
- O=C(CN1CCN(Cc2ccccc2)C1=O)NCCN1CCOCC1
 : 0.7 | -0.154
- Cc1cc(C)n(CCCNC(=O)c2ccc(NS(=O)(=O)c3cc(Cl)sc3Cl)cc2)n1
 : 0.2 | ·
- CNc1nsc(C(=O)c2ccc(OC)cc2)c1N
 : 1.8 | -0.746
- Cn1ccnc1SC(=O)N1c2ccccc2Sc2ccccc21
 : 0.1 | -0.408
- C#CCCCCCCCCCCCC(O)CC(O)CO (stereo not given)
 : -0.8 | -0.312
- CC(C)(Oc1ccc(Cl)cc1)C(=O)NC1CCCCNC1=O (stereo not given)
 : 1.7 | ·
- CCCCn1c(=O)n(CC(=O)Nc2ccccc2F)c(=O)c2c1ncn2Cc1ccco1
 : -2.4 | ·
- Cn1cccc1C1CCCN1CC(=O)Nc1ccccc1C(=O)Nc1ccccc1 (stereo not given)
 : 0.1 | ·
- Cc1ccc(C)n1-c1ccc(C(=O)N(C)Cc2nc3ccccc3c(=O)[nH]2)cc1
 : -1.5 | ·
- Cc1ccc(NC(=O)CSC(C)C(=O)N2CCC(C)CC2)cc1 (stereo not given)
 : 0.5 | ·
- CN1CCN(C(=O)c2ccc3c(c2)N(Cc2ccccc2F)C(=O)c2ccccc2S3=O)CC1 (stereo not given)
 : -2.9 | -0.659
- FC(F)(F)c1nc(NNC(=S)NCC2CCCO2)c2ccccc2n1 (stereo not given)
 : 2.5 | ·
- CCCS(=O)(=O)NCCc1cc2c(OC)ccc(OC)c2[nH]c1=O
 : -1.2 | 0.056
- CN1C(=O)c2c(nc[nH]c2=O)C12CCCC2
 : 4.4 | ·
- CN(C)c1nc(N2CCOCC2)nc(N2CCOCC2)n1
 : 1.7 | 0.966
- N#C/C=C(\Sc1nnc(C2CCCCC2)n1N)c1ccccc1
 : 2.9 | ·
- CCC(=O)Nc1ccc(C(=O)Cn2nc(C(=O)O)c3ccccc3c2=O)cc1
 : 1.0 | ·
- CN(C)c1ccc2c3c(ccc(N(C)C)c13)C(=O)OC2
 : -1.6 | ·
- N#CCSc1ncccn1
 : · | -0.166
- CCOCC(=O)Nc1cccc(-c2nc3cccnc3s2)c1
 : 0.7 | 0.692
- CCC(=O)Nc1ccc(C(=O)COc2ccc(OC)cc2)cc1
 : 2.0 | ·
- c1ccc2c(-n3cccn3)cccc2c1
 : -1.0 | -0.732
- O=C(COc1cccc(-n2cnnn2)c1)NC1CCCCC1
 : -0.8 | 0.733
- O=C(OCc1cc(=O)n2c3c(sc2n1)CCCC3)C1CSC2(c3ccc(F)cc3)CCC(=O)N12 (stereo not given)
 : 1.4 | ·
- CC(NC(=O)Nc1cccnc1)N1C(=O)C2C3C=CC(C3)C2C1=O (stereo not given)
 : 3.9 | -0.281
- CC(C)(C)c1cc(Cl)c(O)c(N=Cc2ccccc2O)c1
 : 2.6 | ·
- Cc1ccc(-c2ccnc(-c3ccc(O)cc3)n2)cc1
 : · | -0.318
- NCCCc1nc2ccccc2[nH]1
 : 1.0 | -0.739
- O=C(Nn1cnnc1)c1ccccc1-c1ccccc1
 : -1.2 | -2
- COc1ccc2[nH]cc(CCNS(C)(=O)=O)c2c1
 : -2.4 | 0.375
- O=c1ccc(=O)n(-c2ccccc2)[nH]1
 : 1.1 | ·
- Cc1c(C)c(C)c(CSC2=NCCS2)c(C)c1C
 : 2.5 | ·
- CCSC1=N/C(=C\c2ccsc2)C(=O)S1
 : 1.9 | -0.66
- CC1CC(C)CN(S(=O)(=O)c2ccc(CN3C(=O)c4cccnc4C3=O)cc2)C1 (stereo not given)
 : -1.3 | 0.854
- CN1CCN(NS(=O)(=O)c2ccc(Br)s2)CC1
 : -1.5 | ·

An excerpt of these results, as labelled records:
compound: CC(=O)NCCC(=O)Nc1cccc(C#N)c1
- Ab BasE inh: 3.5
- KSHV LANA nucl: ·
compound: S=C(Nc1ccc(Cl)c(Cl)c1)NC1CCCC1
- Ab BasE inh: 1.9
- KSHV LANA nucl: ·
compound: O=C(CN1CCN(Cc2ccccc2)C1=O)NCCN1CCOCC1
- Ab BasE inh: 0.7
- KSHV LANA nucl: -0.154
compound: Cc1cc(C)n(CCCNC(=O)c2ccc(NS(=O)(=O)c3cc(Cl)sc3Cl)cc2)n1
- Ab BasE inh: 0.2
- KSHV LANA nucl: ·

(more compounds)
Molecule | Ab BasE inh | KSHV LANA nucl
Cc1c(N(C)C(=S)SCC(=O)O)c(=O)n(-c2ccccc2)n1C | 0.8 | 0.497
CC(C)Cn1cc(I)c(=O)n(CC(C)C)c1=O | -0.8 | -0.223
O=c1nc(SCCN2CCCCC2)nc2ccccn12 | -0.8 | -1.17
O=S(=O)(Cc1ccc(C(F)(F)F)cc1)c1ccc(Cl)cc1 | 0.3 | ·
CNC(=S)N1CCSC1=Nc1ccccc1C | 1.0 | ·
N#CCSc1nnc(-c2ccc(Cl)cc2)n1Cc1ccco1 | -0.2 | ·
O=C(CCc1ccccc1)NC1CCS(=O)(=O)C1 (stereo not given) | -1.3 | ·
CN(Cc1cccc(F)c1)C(=O)C1CC(=O)N(Cc2ccco2)C1 (stereo not given) | 1.7 | ·
O=C(CCS(=O)(=O)c1nc(-c2ccc3c(c2)OCO3)cc(C(F)(F)F)n1)Nc1ccc(OC(F)(F)F)cc1 | 1.9 | -1.12
COc1cccc(N2C(=O)c3ccccc3C2C(=O)NC2CCCC2)c1 (stereo not given) | 1.9 | -1.2
Cc1cc(C)c(NC(=O)COC(=O)C2CCCCC2)c(C)c1 | -0.1 | ·
Cc1ccc(CN(C)C(=O)c2ccc(Oc3ccccc3)cc2)o1 | 0.5 | ·
CN(C)/C=C1/N=C(c2ccccc2)OC1=O | -3.6 | 1.31
Cc1cc(C(=O)Nc2ccc(CN3CCS(=O)(=O)CC3)cc2)no1 | 0.3 | ·
CCn1c(O)c(/C=C2\C=C(C)N=C2C)c(=O)[nH]c1=S | -24.1 | 3.27
O=C(COCC(=O)N1CCN(c2ccccc2)CC1)N1CCN(c2ccccc2)CC1 | 0.5 | ·
Cc1nn(C)cc1NC(=O)Nc1ccc(F)cc1 | 1.5 | ·
Cn1c(=O)[nH]c(=O)c2c1nc(N1CCCC1)n2CCSc1ncccn1 | -1.1 | 0.259
COc1ccc(C)cc1Cn1c(S(C)(=O)=O)nc2ccccc21 | 0.1 | ·
CC1=C(C#N)C(=O)N(C)C(=O)/C1=C/c1ccc(-c2ccccc2C(=O)O)o1 | -1.1 | -0.204
N#CCC(=O)N1CCN(c2ccccc2)CC1 | 0.4 | -1.77
CCc1ccc(OCCCn2cc(/C=C3/C(=N)N4C=CSC4=NC3=O)c3ccccc32)cc1 | 0.1 | ·
Cc1csc(SCc2ccc(C(=O)O)cc2)n1 | 1.9 | ·
CCN1C(=O)c2ccc(-c3ccc(C=C4C(=O)NC(=O)NC4=O)o3)cc2C1=O | 1.8 | -1.38
Cc1oc(-c2ccc(Cl)cc2)nc1CN1CCCC(C(=O)N2CCN(C(=O)c3ccco3)CC2)C1 (stereo not given) | -4.9 | 2.65
Cc1ccc2cccc(OCC(=O)N3CC(C)CC(C)C3)c2n1 (stereo not given) | -1.5 | ·
O=C(Cc1ccc(Cl)cc1)NCCN1CCOCC1 | 0.9 | -0.0455
NC(=S)CN1CCCC1=O | 2.8 | ·
C=CCNc1oc(COc2cccc(Cl)c2)nc1C#N | -1.1 | -0.242
O=C(Nc1ccccc1)C(CC(=O)N1CCOCC1)C(=O)c1ccccc1 (stereo not given) | -0.3 | ·
CCN(C(=O)CSc1nc(N)cc(=O)[nH]1)C1=CCCC1 | 2.4 | ·
CC1CCCCN1C(=O)COC(=O)/C=C/c1ccc2ccccc2n1 (stereo not given) | 1.0 | ·
Cc1onc(-c2ccccc2)c1C(=O)N1CCC(C)CC1 | 3.2 | -0.007
O=C1CC(C(=O)N2CCN(C(=O)C3CC3)CC2)CN1Cc1ccco1 (stereo not given) | 2.1 | ·
COc1ccc(F)cc1S(=O)(=O)NCC1COC2(CCCCC2)O1 (stereo not given) | 0.8 | -0.647
Cc1ccc(NC(=O)/C(C#N)=N/Nc2ccc(S(=O)(=O)N3CCOCC3)cc2)c(C)c1 | 1.5 | ·
CC(C)=NNC(=O)c1cccc2cc[nH]c12 | 0.1 | 0.276
CCOc1ccc(S(=O)(=O)NCCC(=O)OC2CCOC2=O)cc1 (stereo not given) | -2.3 | ·
O=C(Cn1c2c(c(-c3ccccc3Cl)cc1=O)CCC2)NCCCN1CCOCC1 | 1.7 | -0.824
CSc1nnc(-c2csc(S(=O)(=O)Nc3cccc(C(F)(F)F)c3)c2)n1C | 1.0 | 0.161
O=C(OC1CCc2ccccc2C1=O)c1ccc(O)cc1 (stereo not given) | 0.4 | -0.048
CC(C)(O)c1cc(=N)sc2nc3ccccc3n12 | -2.5 | 0.272
C=CCN1C(=O)CC(N2CCOCC2)C1=O (stereo not given) | 0.9 | -0.512
O=S(=O)(c1ccccc1)N1CCn2cccc2C1c1ccccc1 (stereo not given) | 1.2 | 0.126
S=c1[nH]nc(-c2cccs2)n1C1CCCCC1 | -0.6 | 0.0545
CCOc1cc2c(cc1OCC)C(CC(=O)O)N(C(=O)Nc1ccc(OC)cc1)CC2 (stereo not given) | -0.6 | 0.254
O=C(O)CC(NS(=O)(=O)c1cccc2nsnc12)C(=O)O (stereo not given) | -0.5 | -0.069
CN(C)S(=O)(=O)c1ccc(N2CCOCC2)c(C(=O)Nc2ccc3c(c2)OCCO3)c1 | 0.2 | ·
O=C(NC12CC3CC(CC(C3)C1)C2)c1cncc(O)c1 | -3.4 | -0.085
NC(=O)CSc1ncnc2c1cnn2-c1ccccc1 | 0.8 | 0.574
COc1ccc(C(CNC(=O)c2ccccc2)N2CCCC2)cc1 (stereo not given) | -0.7 | 2.4
O=C(c1ccccc1)c1ccccc1-n1cccc1 | · | 2.94
N#Cc1ccc(C#CCOC(=O)c2ccccc2)cc1 | -0.9 | ·
O=C(CN(C(=O)c1csnn1)c1ccccc1)NCc1ccc2c(c1)OCO2 | 0.0 | -0.0675
CCOC(=O)c1ccc2nc(C(F)(F)F)nc(N3CCc4ccccc4C3)c2c1 | 0.3 | -0.896
O=S(=O)(NC1CCN(Cc2ccccc2)CC1)c1ccc(-n2cccn2)cc1 | -1.1 | -0.578
O=C(O)COc1ccc2nsnc2c1 | 0.5 | -0.541
CCc1cc(-c2n[nH]c(C(=O)O)c2-c2nc(C)cs2)c(O)cc1O | 3.4 | -1.65
CC1CN(C(=O)c2ccncc2)CC(C)O1 (stereo not given) | -2.4 | 3.02
COc1ccc(CN2CCCC2C(=O)Nc2ccc(OC)c(OC)c2)cc1OC (stereo not given) | 2.6 | -0.463

Following part:
Molecule | Ab BasE inh | KSHV LANA nucl
CCOc1cccc(=NC2CCCCC2)c2c(C)n(C)c(C)c12 | 2.1 | ·
O=C1c2ccccc2CCC1(CO)CO | · | -0.0845
COc1ccc(N2CN=c3s/c(=C\C=C\c4ccccc4)c(=O)n3C2)cc1OC | 2.2 | -0.292
C#CCn1c(=NC(=O)C2COc3ccccc3O2)sc2cc(Br)ccc21 (stereo not given) | 0.4 | 0.176
Cc1nc(Nc2ccccc2)nc2c1ncn2-c1ccccc1 | -1.9 | 0.359
Cc1ccccc1CN1CCC(O)CC1 | 0.1 | 0.188

Assay outcomes deposited in PubChem BioAssay by ICCB-Longwood Screening Facility, Harvard Medical School.

Not all compounds are listed. The share of hits here may be higher or lower than overall.
